# PABP polyA inh: PABP poly(A) RNA binding inhibitors, primary screen, biochemical, fluorescence polarization, uHTS. inhibition, % at 35 µM. actives 1% (n = 290,000);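 active means 50% or more with normal probe brightness, or confirmed in later tests; inconclusive means above 50% with abnormal brightness, or retests that disagree; inactive means below 50% or failed in later tests; about a fifth of its hits are not listed in these tables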;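 further: calls also rest on retests at 20 µM and on dose response follow-up; controls were probe without protein and protein plus probe with vehicle; some compounds called inactive have numbers as strong as hits; many hits fall short of the cut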
# Target sequence (P11940 whole entry, looked up): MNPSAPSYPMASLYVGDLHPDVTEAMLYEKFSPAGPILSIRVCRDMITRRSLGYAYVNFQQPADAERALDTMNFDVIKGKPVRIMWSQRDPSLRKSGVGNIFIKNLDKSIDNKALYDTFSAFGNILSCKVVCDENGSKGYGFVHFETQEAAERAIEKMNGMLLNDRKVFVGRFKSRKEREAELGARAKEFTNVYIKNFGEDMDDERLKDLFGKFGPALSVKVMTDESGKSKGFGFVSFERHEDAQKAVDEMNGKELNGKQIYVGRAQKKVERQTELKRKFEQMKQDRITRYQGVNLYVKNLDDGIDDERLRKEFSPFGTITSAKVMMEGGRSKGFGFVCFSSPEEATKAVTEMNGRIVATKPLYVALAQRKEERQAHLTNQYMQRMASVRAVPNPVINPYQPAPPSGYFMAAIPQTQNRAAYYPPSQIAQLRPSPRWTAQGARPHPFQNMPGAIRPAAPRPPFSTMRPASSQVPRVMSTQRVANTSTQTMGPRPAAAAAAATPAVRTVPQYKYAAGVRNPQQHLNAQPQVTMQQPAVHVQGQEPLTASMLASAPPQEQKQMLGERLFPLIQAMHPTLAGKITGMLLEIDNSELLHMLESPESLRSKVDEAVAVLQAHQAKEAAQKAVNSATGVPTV
# eIF4H inh: human eIF4H binding inhibitors, primary screen, translation initiation inhibitor project, biochemical, uHTS, fluorescence polarization. eIF4H fluorescence polarization binding assay. actives 0.94% (n = 290,000). Eukaryotic translation initiation factor 4H (Homo sapiens), Q15056. inhibition, % at 35 µM;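 active means 50% or more with normal probe brightness, or confirmed in later tests; inconclusive means above 50% with abnormal brightness, or retests that disagree; inactive means below 50% or failed in later tests; about a fifth of its hits are not listed in these tables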;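 further: calls also rest on retests at 20 µM and on dose response follow-up; 0% = protein and probe with vehicle and 100% = probe without protein; strong numbers were not always called active; many hits fall short of the cut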
# Rce1 inhib: yeast Rce1p protease inhibitors, primary screen, biochemical, fluorescence, cell-free homogeneous. CAAX prenyl protease 2 (Saccharomyces cerevisiae (strain ATCC 204508 / S288c)), Q03530. yeast membranes, quenched prenylated peptide cleavage fluorescence. actives 0.27% (n = 290,000). calls only;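 active means fall in fluorescence gain of 50% or more versus controls, with final raw signal at or below 3038400; inconclusive means same 50% fall but final raw signal above 3038400; inactive means fall in fluorescence gain under 50%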;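 further: plate controls were neutral control wells for no effect and wells lacking membranes for full effect; tested at 10 µM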
# Target sequence (Q03530 whole entry, looked up): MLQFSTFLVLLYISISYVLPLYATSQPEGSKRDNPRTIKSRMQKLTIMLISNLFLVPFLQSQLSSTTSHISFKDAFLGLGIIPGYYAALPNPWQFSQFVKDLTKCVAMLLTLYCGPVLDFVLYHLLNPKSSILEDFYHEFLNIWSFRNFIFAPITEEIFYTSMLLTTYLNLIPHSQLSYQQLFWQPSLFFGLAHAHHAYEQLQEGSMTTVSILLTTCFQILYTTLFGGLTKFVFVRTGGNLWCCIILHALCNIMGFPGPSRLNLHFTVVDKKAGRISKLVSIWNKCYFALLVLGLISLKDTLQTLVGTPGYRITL
# UUG fidelity: modulators of yeast start codon fidelity, primary screen, whole organism, S. cerevisiae, single point, plate reader. S. cerevisiae UUG-firefly luciferase reporter, luminescence/redox ratio. activity score, % at 18.7 µM. actives 0.13% (n = 350,000);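 active means replicate mean at a twofold rise or more, about +100% in these data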;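 further: firefly luciferase made from a UUG start codon reports start codon fidelity; reporter light over untreated wells divided by growth signal over untreated wells; some hits fall short of that in this replicate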
# CSC inhib: cancer stem cell viability inhibitors, primary screen, luminescence; cancer stem cell-like cells viability; inhibition, % at 7.5 µM; actives 1.1% (n = 300,000); AID 2717, 2010;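 active means mean at 75% or more and at least half the replicates too; inconclusive means mean and replicates disagree; tested in HMLE shEcad cells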;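 further: 0% = median of negative and 100% = median of positive control wells; the first replicate is given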
# HIV Env fusion: inhibitors of HIV-1 Env-driven cell-cell fusion, primary screen, HeLa-JRFL effector, CEM21 target cells, luciferase; inhibition, % at 12.3 µM; actives 1.1% (n = 360,000); AID 651610, 2012;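 active means mean replicate inhibition score of at least 50 and every replicate individually at or above 50; inconclusive means only one of the two criteria met; inactive means mean below 50 and not all replicates reaching 50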;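 further: 0% = plate neutral controls and 100% = maraviroc near 300 nM; one replicate is shown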
# MT1-MMP act inh: blockers of MT1-MMP proenzyme processing, primary screen, HT1080 RFP-PRO-GFP cells, GFP/RFP fluorescence; Matrix metalloproteinase-14 (Homo sapiens), P50281; GFP/RFP ratio fluorescence, overnight; percent of plate control window, DMSO zero; GFP/RFP ratio change, % at 20 µM; actives 0.061% (n = 360,000);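 active means GFP/RFP ratio change of at least 30% with cell ATP level not reduced by more than half and red fluorescence within 50% of control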; further: strong numbers were not always called active
#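 Material – HT1080 RFP-PRO-GFP cells · Control set – DMSO wells and RFP-L50D-GFP cells · Incubation – overnight cell settling, then overnight compound exposure, 37 °C, 5% CO2 · Compound dosing – single-point 20 µM compound, 1% DMSO · Read-out – GFP/RFP fluorescence ratio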
# eIF4H inh retest: also measured in eIF4H inh; calls as there; inhibition, %; compound at 20 µM; confirmation average;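 mean of two retest wells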
# PABP polyA inh retest: also measured in PABP polyA inh; calls as there; inhibition, %; compound at 20 µM; confirmation repeats;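 mean of two retest wells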
# MT1-MMP act inh RFP: also measured in MT1-MMP act inh; calls as there; RFP signal change, %; measured here: RFP expression control read;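 0 = vehicle wells; hits needed this value within 50% of zero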
# The depositor's hits bear a star; i = inactive; ? = inconclusive; / = not tested or not shown.
SMILES,PABP polyA inh,eIF4H inh,Rce1 inhib,UUG fidelity,CSC inhib,HIV Env fusion,MT1-MMP act inh,MT1-MMP act inh RFP,others
Nc1cccc(S(=O)(=O)NC2=NCCC2)c1,1,-4,i,-7,-4,-8,3,2,
O=C(c1ccc(=O)[nH]c1)N1CCCc2ccccc21,9,-4,i,-19,-8,0,0,0,
Cc1cc(C)c2nc(N3CCCC(C(=O)NC4CCCC4)C3)sc2c1 (stereo unspecified),3,-4,i,-7,9,-5,-6,-6,
CCO[C@H]1OC(C(=O)O)=C[C@@H](C2CC2)[C@@H]1CCCO,12,6,i,/,-6,/,/,/,
Cc1ccc(NC(=S)NC(NC(=O)C(C)(C)C)C(Cl)(Cl)Cl)c(C)c1 (stereo unspecified),-7,3,i,2,-10,-110,-1,-2,
O=C1c2ccsc2SCCN1Cc1ccccc1,-4,-1,i,/,-5,5,4,4,
COC(=O)c1c(NC(=O)CN2CCC(C)CC2)c2c(C)cccc2n1C,0,0,i,/,/,-90,/,/,
CCC1CCCCN1C(=O)COC(=O)c1cc(Br)ccc1Cl (stereo unspecified),32,-8,i,/,6,17,-3,-4,
O=C(O)c1ccc(COc2ccccc2C=C2C(=O)c3ccccc3C2=O)cc1,56*,0,i,/,12,-5,-15,5,eIF4H inh retest=29;PABP polyA inh retest=68*
O=C(NC(=S)Nc1ccc(Cl)cn1)c1cc([N+](=O)[O-])ccc1N1CCOCC1,3,-10,i,-13,5,-4,-2,-5,
CC(C)(C#N)N([O-])C=C[N+](=O)C(C)(C)C#N,-3,-5,i,1,-3,-62,2,5,
COc1cc(C)c(C(=O)Oc2cc(C)c(C(=O)O)c(O)c2C)c(OC)c1C,7,6,i,9,26,/,-5,-5,
Cc1ccc(C(=O)CSc2nc(C)cc(SCc3nnc(-c4ccccc4)o3)n2)cc1,6,0,i,-2,1,62*,3,0,
COc1ccc2[nH]c(=O)c(C3c4cc(OC)c(OC)cc4CCN3C(=O)c3ccco3)cc2c1 (stereo unspecified),-5,-7,i,7,/,-49,0,3,
Cc1cc(C)cc(OCCCn2ccnc2)c1,-10,-7,i,12,-3,3,3,-1,
O=C(NC1CCCCC1)c1cc(C2CC2)on1,3,-10,i,/,-17,-21,-3,4,
Cc1sc2nc3ccc(N4CCCC4)nn3c(=O)c2c1C,17,19,i,-20,-5,17,-5,-15,
CCC(C)(C)NC(=O)Cc1ccc(C)cc1,-12,59,i,-9,/,-48,-6,0,eIF4H inh retest=-3;PABP polyA inh retest=-2
COc1ccc(P(=O)(COc2ccc([N+](=O)[O-])cc2)c2ccc(OC)cc2)cc1,6,5,i,-4,-8,-43,4,-1,
COc1cccc2sc(Nc3nc(-c4ccncc4)cs3)nc12,5,-5,i,/,49,-177,-12,-19,
CC(=O)Nc1ccc(NC(=O)CSc2nnc(NC(=O)c3ccco3)s2)cc1,7,-4,i,-16,-23,/,1,2,
COc1cccc(CN2CCN(Cc3nc4c(s3)CCCC4)CC2CCO)c1 (stereo unspecified),-15,6,i,/,-8,13,5,0,
Cc1ccc(N2C(=O)[C@@H]3[C@H](C2=O)C2CCCN2[C@@H]3C(=O)c2ccccc2)cc1 (stereo partly specified),66,42,/,-13,-9,-167,-63,7,eIF4H inh retest=-5;PABP polyA inh retest=7
CC(C)Oc1ccc(CCC(=O)N/N=C/c2ccc3c(c2)OCO3)cc1,-10,-6,i,-14,10,4,3,0,
COc1cc(NC(=O)c2c3c(nc4ccccc24)CCC3)cc(OC)c1,-9,-11,i,0,-9,7,-2,4,

# Reprinted from the part before: 4 compounds; new compounds follow.
SMILES,PABP polyA inh,eIF4H inh,Rce1 inhib,UUG fidelity,CSC inhib,HIV Env fusion,MT1-MMP act inh,MT1-MMP act inh RFP,others
COc1cccc(CN2CCN(Cc3nc4c(s3)CCCC4)CC2CCO)c1 (stereo unspecified),-15,6,i,/,-8,13,5,0,
Cc1ccc(N2C(=O)[C@@H]3[C@H](C2=O)C2CCCN2[C@@H]3C(=O)c2ccccc2)cc1 (stereo partly specified),66,42,/,-13,-9,-167,-63,7,eIF4H inh retest=-5;PABP polyA inh retest=7
CC(C)Oc1ccc(CCC(=O)N/N=C/c2ccc3c(c2)OCO3)cc1,-10,-6,i,-14,10,4,3,0,
COc1cc(NC(=O)c2c3c(nc4ccccc24)CCC3)cc(OC)c1,-9,-11,i,0,-9,7,-2,4,
CCCCN(C(=O)CSCc1c(C)noc1C)c1c(N)n(CCCC)c(=O)[nH]c1=O,/,/,i,-3,-2,5,1,2,
CCc1ccc(NC(=O)C2CCN(C(=O)N3CCOc4ccccc43)CC2)cc1,3,-2,i,-10,-13,-28,-2,-8,
CN=CC1=C(O)CC(C)(C)CC1=O,7,0,i,-15,5,/,2,4,
CCN1CCN(S(=O)(=O)c2ccc(Cl)c(C(=O)N(C)Cc3cccc(Cl)c3Cl)c2)CC1,/,/,i,14,-2,13,-4,-13,
O=C(COc1ccc2c(c1)CCC2)N1CCN(c2cccc(C(F)(F)F)c2)CC1,2,-3,i,/,-9,18,1,4,
O=C(Cc1c(Cl)cccc1Cl)OCC(=O)N1CCOCC1,/,/,/,-7,-5,0,-3,3,
CCC(C)NC(=O)CSc1nnc(-c2cc(-c3ccc(C)cc3)nc3ccccc23)n1N (stereo unspecified),-8,0,i,-9,/,/,2,-3,
COc1ccc(CCNC(=O)c2noc(C(C)C)c2[N+](=O)[O-])cc1OC,0,2,i,-3,-12,0,1,3,
CCOC(=O)C1(C)/C(=N/Nc2ccc(S(N)(=O)=O)cc2)C(=O)C(=O)N1c1ccccc1 (stereo unspecified),6,-11,i,15,-1,0,-1,1,
Cc1c(C(=O)NC2=NCCS2)cccc1[N+](=O)[O-],-4,-6,i,-4,-8,5,0,-2,
CCc1cc2cc(C)ccc2nc1SCC(=O)N1CCN(C(=O)c2ccco2)CC1,-9,-11,/,-13,-7,/,-4,0,
C=CCOc1ccc(CNCCO)cc1OCC,-14,-9,i,-7,-1,-1,3,6,
CC1(C)Cc2c(sc3nc4n(c(=O)c23)CCC4)CO1,5,-6,i,-14,-10,/,2,8,
CC1(Oc2cccc(F)c2)CCN(Cc2ccccc2OC(F)F)C1 (stereo unspecified),/,/,/,-8,/,5,-1,6,
O=C(O)c1cc(S(=O)(=O)N(Cc2ccccc2)c2ccc(Cl)cc2)ccc1Cl,9,-4,i,-4,-13,-10,3,2,
CC(=O)Oc1ccc2c(=O)oc(-c3ccccc3C)nc2c1,8,9,i,-3,-14,-25,-2,1,
COc1cccc(OCCOCCNCCO)c1,-3,-2,i,/,-7,/,/,/,
N#Cc1ccc(/C=C2\CCCCn3c2nc2cc(C(=O)O)ccc2c3=O)cc1,14,10,i,-22,-15,1,3,5,
CC1C(=O)CCCCCCCCCC2C1(N1CCOCC1)CS2(=O)=O (stereo unspecified),7,-10,i,-8,2,-25,-3,-6,
COc1ccccc1C1C2=C(N=C3SCC(=O)N31)c1ccccc1CC2 (stereo unspecified),2,-6,/,-14,-10,/,-6,-6,
O=C1CC(c2ccsc2)c2cc3c(cc2N1)OCCO3 (stereo unspecified),5,6,i,-9,-1,-3,0,3,
CC1=CC(=O)C(C(C)C)=C/C1=N/OC(=O)c1cccc([N+](=O)[O-])c1,5,1,/,-6,15,/,-30,6,
CC(C)(C)c1nc(SCC(=O)NNC(=O)c2ccccc2)c2ccccc2n1,-1,-1,i,-10,-3,2,-1,-3,
COc1cc(OC)c(C2C(C#N)=C(C)NC(C)=C2C#N)c(C(=O)O)c1,-11,-4,i,-8,-13,-12,2,3,
CCC1CCCCN1C(=O)Cn1c(=O)n(CCC(=O)NCc2ccco2)c(=O)c2sccc21 (stereo unspecified),-14,-10,i,-17,-7,/,-6,1,

# (listing goes on)
SMILES,PABP polyA inh,eIF4H inh,Rce1 inhib,UUG fidelity,CSC inhib,HIV Env fusion,MT1-MMP act inh,MT1-MMP act inh RFP,others
O=C(COc1ccc(F)cc1Cl)Nc1nc(-c2ccccn2)cs1,/,/,i,-47,39,?,5,1,
CCCCCCCNC(=O)C1(CC2CC(c3ccc(Cl)cc3)=NO2)CCN(C(=O)c2ccccc2)CC1 (stereo unspecified),10,4,i,-5,21,4,5,6,
O=C(COC(=O)CCSc1ccccc1Cl)Nc1ccc(F)cc1F,-11,-2,i,/,1,15,1,1,
Cc1cccc(C)c1-c1ccc(CN2C(CC(C)C)C(=O)N(Cc3cn(CC4CCCCC4)nn3)CCS2(=O)=O)cc1 (stereo unspecified),/,/,/,-8,/,-11,-12,-13,
COc1ccccc1OCc1ccc(C(=O)NN)cc1,-9,4,i,-25,2,/,-12,-7,
Cc1ccccc1OCC(=O)NC(=S)Nc1ccc(N2CCOCC2)c(Cl)c1,7,-3,i,5,0,/,-2,5,
Cc1cc(C)c(C)c(S(=O)(=O)N2CCN(CC(=O)c3c(N)n(Cc4ccccc4)c(=O)n(C)c3=O)CC2)c1C,-8,-12,i,6,/,/,6,1,
Cc1ccc2cc(C#N)c(SCC(=O)NCC3CCCO3)nc2c1 (stereo unspecified),3,8,i,-9,1,/,-2,-4,
Cc1cnc(C(=O)OCC(=O)Nc2cc(Cl)cc(Cl)c2)cn1,-4,0,i,-11,/,/,-1,0,
Nc1[nH]ncc1-c1ccccc1,-8,-8,/,/,14,0,3,3,
O=c1c2ccccc2nnn1CCN1CCOCC1,4,-2,i,/,-10,-1,-2,-2,
COc1ccc(-n2nc(C(=O)NCC(=O)NCCc3ccc(OC)c(OC)c3)c3ccccc3c2=O)cc1Cl,0,-2,i,-1,23,24,3,-1,
CC(C)(C)OC(=O)NCCCCCc1nnc(SCc2c(F)cccc2Cl)o1,6,2,i,28,18,24,5,-4,
COCCNC(=O)c1ccc2c(=O)n(CCCN3CCCC3=O)c(=S)[nH]c2c1,8,8,i,/,-11,-1,4,1,
CCN(CC)CCCNC(=O)c1nn(-c2ccc(OC)cc2OC)c(=O)c2ccccc12,8,0,i,3,-2,/,-1,1,
CC(C)(C)n1ncc2c(=O)n(CC(=O)NCCc3ccccc3)cnc21,-5,-4,i,-1,3,/,-3,4,
CC(C)C[C@H](NC(=O)c1[nH]cnc1C(=O)N[C@H](C)c1ccccc1)C(=O)OCc1ccccc1,12,8,i,11,-9,27,-1,-1,
COc1ccc(C#Cc2c(-c3ccc(OC)cc3)oc3ccc(-c4ccc(OC)cc4)cc23)cc1,/,/,i,-3,-12,-3,5,8,
COC(C/C=C/[C@@H](O)[C@@H](C)OCc1ccccc1)OC,/,/,i,-10,1,-7,0,2,
O=C(Oc1ccccc1Cl)c1ccccc1P(=O)(O)O,13,-4,i,-5,-11,-9,3,6,
C/C(=N/NC(=O)c1nnn(-c2nonc2N)c1COc1ccccc1)c1ccccc1,-8,3,i,-12,-8,2,3,5,
COc1ccc(N2CCN(c3ncnc4sc(C(=O)NCC5CCCO5)c(C)c34)CC2)cc1 (stereo unspecified),-6,-5,/,-15,-2,8,0,-1,
Cc1ccc(C)c(NC(=S)N2CCCCCC2)c1,-8,9,i,-15,-9,/,10,0,
Cc1ccc(NC(=O)CN(Cc2ccco2)Cc2ccccc2O)cc1C,2,5,i,-13,15,-1,-10,-12,
Cc1ccc(NC(=O)CCC(=O)N/N=C/c2ccccc2O)cc1,-12,6,i,1,7,-4,-3,-5,
